CDC25B-CDK2 inh – primary biochemical HTRF screen for blockers of M-phase inducer phosphatase 2 binding to CDK2/cyclin A; HTRF CDC25B-CDK2/CyclinA binding, anti-His/anti-Flag; hits give high values; AID 1259370, 2018; P30305+P24941; z-score (no concentration beside the values); 0.72% of 94,000 active;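 note: score is relative to mean and SD of negative controls; strong numbers were not always called active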
TAR Tat displ – TAR RNA-Tat peptide displacers, HIV-1, primary screen, biochemical, FRET, FAM/TAMRA-labeled Tat. HIV-1 TAR RNA, Tat peptide displacement FRET; hits give high values. z-score (concentration not given with the values). 0.6% of 100,000 active. AID 1259389, 2018;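 note: score is relative to mean and SD of negative controls; some compounds called inactive have numbers as strong as hits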
* marks the source's active call; other numbers are inactive results; . = not tested or not shown.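 Rule for the calls: active = z-score from 3 up in half or more of its runs; inactive = the rest.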

SMILES	CDC25B-CDK2 inh	TAR Tat displ
COc1ccc(-c2nc(=S)c3c([nH]2)Oc2c(O)cccc2C3)c(OC)c1	-1.97	2.19
Cc1c2cnn(CC(=O)O)c(=O)c2c(C)n1Cc1ccc(Cl)cc1	-0.87	0.82
CCOc1ccc(N2C(=O)CC(NC3CCCCC3)C2=O)cc1 (centres undefined)	0.32	1.06
Cc1cc2nc(CSc3nc(-c4ccccc4Cl)nc4cc(=O)[nH]n34)cc(=O)n2o1	.	-0.68
Cc1ccc(N2C(=O)N(c3ccc(Br)cc3)C3CS(=O)(=O)CC32)cc1 (centres undefined)	-1.77	-0.27
O=C(Nc1ccccc1Cl)c1c[nH]c(=O)n(-c2ccccc2)c1=O	.	0.45
CC1CCCC(NC(=O)c2cc(S(=O)(=O)N3CCc4ccccc43)cn2C)C1C (centres undefined)	-1.44	2.95
CCOC(=O)N1CCC(NC(=O)CN(C)S(=O)(=O)c2ccc3c(c2)C(C)(C)C(=O)N3C)CC1	.	1.82
CS(=O)(=O)c1ccc(-c2cccc(NS(=O)(=O)c3ccc(F)cc3)c2)nn1	.	1.35
O=C(CCS(=O)(=O)c1cccc2nsnc12)Nc1ccc(Cl)cc1	-0.56	-1.43
CC(CS(=O)(=O)c1ccc2c(c1)NC(=O)CS2)C(=O)NCc1cccs1 (centres undefined)	.	-5.77
NNC(=O)c1ccncc1	.	1.09
CC(C(=O)Nc1ccc2c(c1)OCO2)N1Cc2ccccc2C1=O (centres undefined)	.	1.09
COC(=O)c1ccc(NC(=O)Nc2nnc(N(C)C3CCCCC3)s2)cc1	0.15	2.37
O=C(Cn1nc(C(F)(F)F)c2c1CCCC2)Nc1ccc(Cl)cc1	-2.02	0.36
CCCCOC(=O)c1c(C)oc2ccc(NS(=O)(=O)c3cccs3)cc12	-0.17	0.55
Cn1c(CSc2cccs2)nnc1SCc1ccccc1	-1.35	.
COc1ccc(CN2C(=O)c3oc4ccc(Br)cc4c(=O)c3C2c2cccc(O)c2)cc1 (centres undefined)	-0.35	0.41
O=C1c2cccnc2C(Nc2ccc(Cl)cc2)N1Cc1cccs1 (centres undefined)	1.16	0.99
CCOc1cc(C2C3=C(CC(C)(C)CC3=O)NC3=C2C(=O)CC(C)(C)C3)cc(Br)c1O	-0.23	0.64

5 records drawn at random from those above:
SMILES	CDC25B-CDK2 inh	TAR Tat displ
COc1ccc(CN2C(=O)c3oc4ccc(Br)cc4c(=O)c3C2c2cccc(O)c2)cc1 (centres undefined)	-0.35	0.41
COC(=O)c1ccc(NC(=O)Nc2nnc(N(C)C3CCCCC3)s2)cc1	0.15	2.37
CC(CS(=O)(=O)c1ccc2c(c1)NC(=O)CS2)C(=O)NCc1cccs1 (centres undefined)	.	-5.77
Cn1c(CSc2cccs2)nnc1SCc1ccccc1	-1.35	.
O=C1c2cccnc2C(Nc2ccc(Cl)cc2)N1Cc1cccs1 (centres undefined)	1.16	0.99

Looked up above:
`Cc1cc2nc(CSc3nc(-c4ccccc4Cl)nc4cc(=O)[nH]n34)cc(=O)n2o1` in TAR Tat displ is entered as -0.68
`CC1CCCC(NC(=O)c2cc(S(=O)(=O)N3CCc4ccccc43)cn2C)C1C` (centres undefined) in CDC25B-CDK2 inh is entered as -1.44
`O=C(Nc1ccccc1Cl)c1c[nH]c(=O)n(-c2ccccc2)c1=O` in TAR Tat displ is entered as 0.45
`O=C(Cn1nc(C(F)(F)F)c2c1CCCC2)Nc1ccc(Cl)cc1` in TAR Tat displ is entered as 0.36

Remaining list, next part.
SMILES	CDC25B-CDK2 inh	TAR Tat displ
Cc1ccc2[nH]c3c(=O)n(CCCN4CCCC4)cnc3c2c1	0.5	1.09
CCc1ccc(S(=O)(=O)Nc2ccc(-c3cn4ccccc4n3)cc2)cc1	0.15	.
COc1ccc(N2CCN(S(=O)(=O)CCNS(=O)(=O)c3cc(OC)ccc3OC)CC2)cc1	.	1.16
CC1Cc2cc(S(=O)(=O)CCC(=O)Nc3ccc(Cl)cc3F)ccc2N1C(=O)C1CC1 (centres undefined)	.	0.51
CCOc1ccc(NS(=O)(=O)c2ccc3c(c2)NC(=O)C(C)S3)cc1 (centres undefined)	.	2.27
CSc1ccc(-c2nc3c(c(=O)[nH]2)Cc2ccccc2O3)cc1	-3.62	-1.73
O=C(NCc1ccccc1)c1cnc2sc(N3CCCC3)nn2c1=O	.	-0.49
CC(C)Sc1n[nH]c(=O)n1-c1ccccc1	-1.78	.
Cc1cc2nc(CSc3nc4ccccc4s3)cc(=O)n2o1	-1.02	0.05
O=C(NCCC1=CCCCC1)C1CCC(CNc2c(N3CCCC3)c(=O)c2=O)CC1 (centres undefined)	-0.74	1.36
O=C(Cn1cnc(S(=O)(=O)N2CCCCC2)c1)N1CCC(N2CCCCC2)CC1	.	0.68
Nc1c(C(=O)Nc2ccc(F)cc2)sc(=S)n1-c1ccccc1F	.	1.57
COCCCNC(=O)Nc1ccc2sc(NC(=O)C3CCCCC3)nc2c1	.	-0.17
CCOC(=O)c1ccc(Oc2ncc(C(F)(F)F)cc2Cl)cc1	-1.21	.
COc1cccc(-c2nn3c(Cn4cnc5ccccc54)nnc3s2)c1	-1.76	0.05
O=c1oc2c(-c3ccc(F)cc3)cc(O)cc2s1	-2.53	.
Cc1cc2cc(CCNS(=O)(=O)c3ccc(F)cc3)c(=O)[nH]c2cc1C	-1.13	.
Cn1ncc2c(N3CCOCC3)nc(N3CCC(N4CCCCC4)CC3)nc21	.	1.36
CSc1ccc(NC(=O)NCCCN2CCN(C3CCCCC3)CC2)cc1	-2.01	-1.27
O=C(CSC1=NS(=O)(=O)c2ccccc2N1)NC1CCCC1	.	0.35
O=C(CCS(=O)(=O)c1ccc2c(c1)CCN2C(=O)C1CC1)Nc1cc(F)ccc1F	.	0.87
Cc1ccccc1NC(=O)CSc1nnc2ccccn12	0.37	.
COCC(C)NC(=O)c1c(O)nc2cc(C)ccn2c1=O (centres undefined)	-1.85	0.77
COc1ccc(-c2cc(N)n(-c3ccc(Cl)c(Cl)c3)n2)cc1	-1.31	.
CCCn1c2ccccc2c2cnn(CC(=O)NC(C)CCc3ccco3)c(=O)c21 (centres undefined)	.	0.74
COc1cccc(C2=NN(S(C)(=O)=O)C(c3cn(-c4ccccc4)nc3-c3ccccc3)C2)c1 (centres undefined)	-2.58	-1.89
CCCCNC(=O)Oc1ccc2sc(=O)oc2c1	-10.3	1
Cc1nc(-c2ccccc2)sc1-c1ccc(SCC(=O)N2CCCC2)nn1	.	1.39
CCOC(=O)c1cnc2cc(C)ccn2c1=O	-1.07	-0.61
CC1CC(C)(C)NC(=S)N1CCCC(=O)N1CCN(c2ccc(F)cc2)CC1 (centres undefined)	-0.78	.
CSc1ncccc1C(=O)Nc1ccc2c(c1)C(=O)OC2	-0.42	.
COc1ccc2cc3c(nc2c1)N(S(=O)(=O)c1ccc(OC2CCCC2)cc1)CC3	-2.33	0.92
COc1cccc(CC(=O)NNC(=O)c2ccc3nccnc3c2)c1	-0.69	.
CN(Cc1ccccc1)c1nc2c(c(=O)[nH]c(=O)n2C)n1Cc1ccccc1Cl	0.14	.
Cc1ccc(-c2nnc(C3CCN(S(=O)(=O)c4ccc5c(c4)CCCC5)CC3)o2)cc1	-0.5	-1.22
Cc1cc(C)c(S(=O)(=O)N2CCN(c3cc(-c4ccccc4)ncn3)CC2)cc1C	.	0.44
Cc1nnc(Nc2cccc(Cl)c2)[nH]c1=O	3.95	1.65
COc1ccc2c(c1)OCC/C2=N\OC(=O)c1cc(OC)c(OC)c(OC)c1	-3.1	.
Cc1ccc(Nc2nc(N)nc(CSc3nncn3C)n2)cc1	0.82	1
Cc1nc(N2CCCC2)cc(N2CCN(S(=O)(=O)c3ccccc3Cl)CC2)n1	0.25	-1.19
Cc1cccc(NC2=C(C#N)C(=O)NC3(CCCC3)S2)c1	-2.06	.
O=C(O)c1ccc(Nc2nc(-c3ccccc3)nc3ccccc23)cc1	-0.62	.
COc1cc(NC(=O)c2sc3ccccc3c2Cl)c(OC)cc1Cl	-1.74	-0.31
O=C1c2cc(-c3nc(-c4cccc([N+](=O)[O-])c4)[nH]c3-c3ccccc3)ccc2-c2ccc([N+](=O)[O-])cc21	0.03	.
CC1=C(c2cccc(Br)c2)S(=O)(=O)NC1=NCCCN1CCCC1=O	-0.49	0.07
Fc1cc(F)cc(-c2noc3ncnc(N4CCOCC4)c23)c1	.	1.62
COc1cc(OC)c(NC(=O)CCS(=O)(=O)c2ccc3c(c2)NC(=O)CS3)cc1Cl	.	0.91
COc1ccc(OC)c(Nc2c3c(nc4ncnn24)CCC3)c1	.	0.87
CN(C)S(=O)(=O)N1CCC(c2nc3ccccc3s2)CC1	-1.3	-0.02
COCCNC(=O)CSc1nc(-c2ccc3c(c2)OCO3)nc2cc(=O)[nH]n12	.	0.12
Additional entries:
SMILES	CDC25B-CDK2 inh	TAR Tat displ
Cc1ccc(-c2nc(CSc3nc4ncccc4[nH]3)c(C)o2)c(C)c1	-1.86	2.4
O=C1C(=O)N(CO)C(c2ccccc2)/C1=C(\O)c1ccccc1 (centres undefined)	-1.04	.
O=C(Nc1ccccc1Cl)C1CC(=O)n2ncnc2N1 (centres undefined)	0.58	0.35
N#Cc1c(SCC(=O)c2ccccc2)nc2c(c1-c1cccnc1)CCCC2	-0.77	.
Cc1nc(-c2ccc(S(=O)(=O)Nc3c(C)cccc3C)cc2)co1	.	0.03
COc1cc(O)ccc1C1CC(=O)Nc2c1c(=O)nc(SCc1ccc(Cl)cc1)n2C (centres undefined)	-1.1	2.52
COc1ccc2nc3oc(C(=O)NC4CCCC4)cc3cc2c1	.	2.81
CCC(=O)Oc1ccc(C2C3=C(Nc4c2c(=O)n(C)c(=O)n4C)c2ccccc2C3=O)cc1 (centres undefined)	-2	-2.5
Cc1csc2nc(CSc3ccccc3NS(=O)(=O)c3ccc(Cl)cc3)cc(=O)n12	.	0.64
Cc1cc(-c2ccc(S(=O)(=O)N3CCN(c4ccccc4F)CC3)s2)on1	.	-1.41
Cc1cc(C)n2c(SCc3cc(=O)n4c5c(sc4n3)CCCC5)nnc2n1	.	0.97
COCCCN(C(=O)Cn1c(=O)oc2ccccc21)C(C)c1cccs1 (centres undefined)	.	-0.84
O=C(Nc1nc(-c2ccc3c(c2)OCO3)cs1)c1ccc2c(c1)OCCO2	.	0.17
COc1ccc(C2=NN(C(=O)CCCC(=O)O)C(c3ccc(Br)cc3)C2)cc1 (centres undefined)	-0.76	0.77
Cc1csc2ncnc(NNS(=O)(=O)c3cc(C(F)(F)F)cc(C(F)(F)F)c3)c12	-1.59	.
CC(C)CNC(=O)c1c(O)c2cccc3c2n(c1=O)CCC3	.	1.85
N#Cc1cc([N+](=O)[O-])ccc1Sc1ccc(Cl)cc1	-1.77	.
Oc1cccc(Nc2nc(-c3ccccc3)cs2)c1	-2.06	.
COC(=O)C1C(=O)C2=C(CC1C)NC(C)=C(C(=O)OCc1ccccc1)C2c1ccc(C)o1 (centres undefined)	-1.05	-0.34
Nc1ccc2c(c1)OCCCO2	-0.95	.
O=C1C=C(OCc2ccccc2)CN1	-1.1	.
CCCCCOC(=O)C1=C(C)Nc2ncnn2C1c1ccc(OC)cc1OC (centres undefined)	-0.51	-0.48
Cc1cc(=O)nc2c3ccccc3n(C(C)C(=O)NCc3cccs3)n12 (centres undefined)	-1.88	-0.62
CC(=O)OCc1ccc(/C=C(\C#N)S(C)(=O)=O)o1	-1.12	.
COC(=O)CN1C(C(=O)c2ccccc2)=C(OC(=O)C(C)(C)C)c2ccccc2S1(=O)=O	0.71	0.3
O=C(Oc1cccc2cccnc12)c1ccc(Br)cc1	-0.12	0.68
Cn1nc(Br)nc1Sc1ccccc1NC(=O)Cc1cccs1	.	1.21
COc1ccc(CN2CSC3=C(C#N)C(c4cccc(OC)c4)CC(=O)N3C2)cc1 (centres undefined)	7.6*	-0.14
CC12CN3CC(C)(CN(C1)C3c1cc(Br)ccc1O)C2=O (centres undefined)	-1.04	.
CC(C)(CC(=O)N1CCN(c2ccccc2)CC1)Sc1ccc(Cl)cc1	-2.66	.

A draw from above in order of SMILES length, smallest number first.
SMILES	CDC25B-CDK2 inh	TAR Tat displ
CC(=O)OCc1ccc(/C=C(\C#N)S(C)(=O)=O)o1	-1.12	.
CCCCCOC(=O)C1=C(C)Nc2ncnn2C1c1ccc(OC)cc1OC (centres undefined)	-0.51	-0.48
CC(C)(CC(=O)N1CCN(c2ccccc2)CC1)Sc1ccc(Cl)cc1	-2.66	.
COc1ccc(CN2CSC3=C(C#N)C(c4cccc(OC)c4)CC(=O)N3C2)cc1 (centres undefined)	7.6*	-0.14
COC(=O)CN1C(C(=O)c2ccccc2)=C(OC(=O)C(C)(C)C)c2ccccc2S1(=O)=O	0.71	0.3

Going on with the list.
SMILES	CDC25B-CDK2 inh	TAR Tat displ
O=C(CN1C(=O)CCSc2ccc(S(=O)(=O)N3CCCC3)cc21)NCC1CCCO1 (centres undefined)	.	1.78
CC1CCCN(C(=O)Cn2ncc3c2-c2ccccc2OC3)C1 (centres undefined)	-0.74	-0.29
O=C(O)c1ccc2nc(-c3ccccc3)[nH]c2c1	-1.66	2.14
Cn1cnc(S(=O)(=O)NCCC2=CCCCC2)c1	.	2.09
C#CCn1cnc2c(oc3ccccc32)c1=O	.	0.67
CC(C)c1ccc2[nH]c3c(c2c1)CCCC3O (centres undefined)	-1.78	.
O=C(CN1C(=O)COc2ccccc21)NCCCN1CCN(Cc2ccccc2)CC1	1.94	.
C=CCN1C(=O)C(O)(CC(=O)c2ccc(OCC)cc2)c2ccccc21 (centres undefined)	-2.13	-0.49
COc1cccc(-c2[nH]nc3nc(-c4ccc(O)c(OC)c4)cc(C(=O)O)c23)c1	-2.15	0.11
Nc1nonc1C(=O)NCCNC(=O)c1ccc(Br)cc1	-3.63	-0.27
CCc1cc2c(cc3c(=O)n(CC(=O)N4CC(C)CC(C)C4)nc(CC)n32)s1 (centres undefined)	0.59	0.67
Cc1ccc(S(=O)(=O)NC2CCN(c3ncccn3)CC2)cc1	-1.09	1.91
CCN1CC23C=CC(O2)C(C(=O)O)C3C1=O (centres undefined)	0.44	-0.03
O=C(c1ccco1)N1CCN(C(=O)C2CCCN2c2nnc(N3CCCC3=O)s2)CC1 (centres undefined)	.	0.63

Screening results: PubChem BioAssay, Center for Chemical Genomics, University of Michigan
